Screening results: PubChem, National Center for Advancing Translational Sciences (NCATS)
VDR inhibitor – Inhibitors of the vitamin D receptor (VDR): qHTS; VDR-SRC2-3 peptide fluorescence polarization, 2 h; Potency, µM, inactives show max response, negative = inhibition, most hits filed as inhibitors; 400,000 compounds, 0.93% hits; AID 504847, 2011; active means well fitted inhibition curve with a large enough effect; inconclusive means small, poorly fitted or top-dose-only effect, or another doubt; inactive means no such curve, though single readings can be large or run the other way; further: series mostly up to about 120 µM
Target sequence (P11473 whole entry, looked up): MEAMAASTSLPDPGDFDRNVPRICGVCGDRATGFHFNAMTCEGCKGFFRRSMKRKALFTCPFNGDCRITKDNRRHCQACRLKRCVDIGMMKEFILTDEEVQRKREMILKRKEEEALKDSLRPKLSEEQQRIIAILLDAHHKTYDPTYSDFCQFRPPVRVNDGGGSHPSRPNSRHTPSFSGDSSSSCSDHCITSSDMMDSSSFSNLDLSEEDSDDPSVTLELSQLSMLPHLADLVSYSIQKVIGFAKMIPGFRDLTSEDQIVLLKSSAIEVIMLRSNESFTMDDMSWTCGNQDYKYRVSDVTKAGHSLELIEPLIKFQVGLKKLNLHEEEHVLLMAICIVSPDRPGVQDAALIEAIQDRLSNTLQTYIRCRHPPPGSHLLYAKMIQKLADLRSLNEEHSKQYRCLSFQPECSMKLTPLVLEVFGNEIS
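Fluorescence polarization assay measuring small-molecule disruption of VDR binding to the coregulator peptide SRC2-3. Compounds were pin-transferred (23 nl) into the reagent mix and incubated 2 h at room temperature before reading.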
* marks the source's active call; other numbers are inactive results; u = inconclusive; & = joins results of further samples; [ ] = remark or other dose. On the % scale 0 is the no-effect control and ±100 the full control effect; potency means the concentration at half of the fitted maximal effect. This is a subset, so the mix of outcomes need not match the whole.

# | VDR inhibitor | SMILES
1 | -4% | O=C(Nc1ccc2c(c1)N(S(=O)(=O)c1cccs1)CCC2)c1c(F)cccc1F
2 | -1% | O=c1oc2ccc3ccccc3c2cc1-c1nnc(Nc2ccc(Cl)cc2Cl)s1
3 | -7% | O=C(Nc1ccccc1)c1nsnc1C(=O)Nc1ccccc1
4 | -1% | CCOc1ccccc1NC(=O)N1CCC(NC(=O)c2ccccc2C)CC1
5 | -17% | O=C(NC(=S)Nc1ccc(N2CCOCC2)cc1)c1cncc(Br)c1
6 | -6% | Cc1cc(C)c(S(=O)(=O)Nc2ncn[nH]2)c(C)c1
7 | 12% | CN(C)c1ccnc(C(=O)O)c1
8 | 9% | COC(=O)c1cc(C(=O)N2CCN(c3ncccn3)CC2)cc([N+](=O)[O-])c1
9 | -26% | Clc1ccc(-c2nc3cc(CN4CCCCC4)ccc3o2)cc1
10 | u | COc1ccccc1S(=O)(=O)Cc1ccc(C(=O)N2CCN(c3ccccn3)CC2)o1
11 | -27% | CCc1ccc(NC(=O)C(Cc2ccccc2)NS(=O)(=O)c2ccc3c(c2)CCN3C(C)=O)cc1 (centres undefined)
12 | -18% | COc1ccc(Cl)cc1C(=O)NCc1cn(C)nc1C
13 | 6% | COc1ccc(C(C)=O)cc1COc1ccc(Cl)c(C)c1
14 | 6% | CCn1cc(C(=O)Nc2ccc(NC(=O)c3ccco3)cc2)c(=O)c2ccc(C)nc21
15 | 36%[activator] | COc1ccc(CCN(C)C2CCCN(C(=O)Cn3cccn3)C2)cc1OC (centres undefined)
16 | 2% | COc1ccccc1OC(=O)Cc1cccc2ccccc12
17 | -13% | COc1ccc2c(c1)CCN1C2CCN2C(=O)CCC21 (centres undefined)
18 | 11% | Cc1ccccc1-n1cnnc1SCC(=O)Nc1cccnc1Cl
19 | 15% | COCCN(C(=O)COC(=O)Cc1c(C)nc2ccccc2c1C)c1c(N)n(CC(C)C)c(=O)[nH]c1=O
20 | -10% | CCCC(=O)c1ccc(N2CCN(C(=O)c3cccs3)CC2)c(F)c1
21 | -10% | Cn1cc(-c2ccccc2)cc(C#N)c1=O
22 | -6% | O=C(/C=C/c1ccc(F)cc1)NC(=S)NNC(=O)[C@H]1C[C@@H]1c1ccccc1
23 | 2% | NC(=O)c1c(-c2ccccc2)oc2ccc(O)cc12
24 | -23% | COc1cccc2cc(C(C)=O)c(=O)oc12
25 | -9% | CCc1nc2cccnc2n1-c1ccc(CC(=O)NCCOC)cc1
26 | 7% | CSc1ccc(CC(=O)N2CCC(n3nccc3NC(=O)C3CC3)CC2)cc1
27 | 6% | O=C(c1ccc(-c2ccccc2)cc1)N1CCN(c2ncccn2)CC1
28 | 3% | COc1ccc(N(CC(=O)NC2CC3CCC2C3)S(=O)(=O)c2ccc(C)cc2)cc1 (centres undefined)
29 | -2% | O=C(NCC(NS(=O)(=O)OCC(Cl)(Cl)Cl)c1ccccc1)C(F)(F)F (centres undefined)
30 | -4% | COC(=O)c1cc(OC)c(OC)cc1NC(=O)CCCCCN1C(=O)CCC1=O
31 | 19% | O=C(Nc1cccc(F)c1)/C(=C\c1cccnc1)NC(=O)c1ccco1
32 | 15% | Clc1nccc(N2CCN(c3ccccc3Cl)CC2)n1
33 | 13% | O=C(NC1CCCCCC1)c1cc2c(=O)n3ccccc3nc2s1
34 | 45µM* | O=C1C=CC(=O)N1c1cccc(-c2ccccc2)c1
35 | 4% | Cc1nc2c(-c3ccc(F)cc3)cnn2c(N)c1-c1ccccc1
36 | -2% | Cn1c(=O)oc2cc(S(=O)(=O)N3CCCC3)ccc21
37 | 2% | CC1CCN(S(=O)(=O)c2ccc(NC(=O)C3CC3)cc2)CC1
38 | 3% | Cc1ccc(Nc2ncc(C(=O)Nc3ccc(F)cc3F)c3ccccc23)cc1Cl
39 | u | O=C(CSc1nnc(-c2cccs2)n1Cc1ccccc1)NCc1ccc2c(c1)OCO2
40 | 2% | O=C(/C=C/c1ccccc1[N+](=O)[O-])Nc1cc(S(=O)(=O)N2CCOCC2)ccc1N1CCOCC1
41 | 6% | CCOC(=O)c1c(NC(=O)CCS(=O)(=O)c2ccccc2)sc2c1CCN(C)C2
42 | 9% | CCCc1ccc(C(C)NC(=O)c2cnccn2)cc1 (centres undefined)
43 | 7% | CN(C(=O)c1nc(-c2cccc(F)c2)n2c1CCCCC2)c1ccccc1F
44 | -5% | Cc1ccc(NC(=O)Cn2nnc(C(=O)NCc3cccs3)c2N)cc1F
45 | 11% | CC(NC(=O)CC(O)(C(F)(F)F)C(F)(F)F)c1ccccc1 (centres undefined)
46 | 10% | Cc1nc2cc3ccccc3cc2s1
47 | -14% | Cc1ccc(S(=O)(=O)N2CCN(C(=O)/C=C/c3ccccc3)CC2)cc1C
48 | 3% | CCOC(=O)NC(=O)C(=CNc1ccccc1C)C(=O)NC(=O)OCC
49 | -16% | Cc1cc(C)c(S(=O)(=O)Nc2cccc(S(=O)(=O)N3CCOCC3)c2)c(C)c1
50 | 22% | O=S(=O)(Nc1nc(CN2CCOCC2)nc2sc3c(c12)CCCC3)c1cc(F)ccc1F

(more compounds)
# | VDR inhibitor | SMILES
51 | -14% | CCCOC(=O)c1ccc(NC(=O)C(CC)CC)cc1
52 | -2% | Brc1ccc(-c2nnc(-c3ccccc3)c(N3CCSCC3)n2)cc1
53 | 2% | CC(=O)Nc1ccc(S(=O)(=O)Nc2nc(CN3CCOCC3)nc3sc4c(c23)CCCC4)cc1
54 | 16% | COc1cccc(CNC(=O)Cn2nc(-c3ccc(C)cc3)ccc2=O)c1
55 | 2% | Cc1cccc(Cn2c(=O)n(CCC(=O)NCCc3ccc(Cl)cc3)c(=O)c3sccc32)c1
56 | -6% | CN(CC(=O)Nc1ccccc1C(F)(F)F)C(=O)c1ccc(-c2ccc(Cl)cc2)o1
57 | -12% | COc1cc(OC)c(NC(=O)c2c3c(nn2C)-c2ccccc2SC3)cc1Cl
58 | 5% | COc1ccc(S(=O)(=O)N(C)C)cc1NCC(=O)Nc1ccc(F)cc1F
59 | 10% | Cc1ccc(Cl)cc1-n1ncc2c(NNC(=O)c3ccco3)ncnc21
60 | 2% | O=S(=O)(c1ccc(Cl)cc1)c1nnn2c1nc(NC1CCCC1)c1sccc12
61 | 14% | Cc1cccc(OC(C)C(=O)N2CCCN(C)CC2)c1C (centres undefined)
62 | 0% | Cc1ccc(S(=O)(=O)NC(C)(C)CSc2nnc(Nc3ccccc3)s2)cc1
63 | -10% | O=C(NC1CCS(=O)(=O)C1)/C(=C\c1ccccc1)NC(=O)c1ccccc1 (centres undefined)
64 | -10% | COc1ccc(NC(=O)CCc2nnc3n(CC(C)C)c(=O)c4ccccc4n23)cc1OC
65 | -18% | Cc1ccccc1S(=O)(=O)Cc1ccc(C(=O)NCCN(CC(C)C)CC(C)C)o1
66 | -5% | O=c1c(C(c2ccccc2)c2c(O)nc3n(c2=O)CCCS3)c(O)nc2n1CCCS2
67 | 0% | CC1CCCN(CCCOc2ccc(Cl)cc2Br)C1 (centres undefined)
68 | 11% | CCn1nc(C)cc1C(=O)N1CCc2c([nH]c3ccccc23)C1c1cc(F)ccc1F (centres undefined)
69 | 13% | CCc1ccccc1Nc1nn2c(=O)c3ccc(C(=O)Nc4cc(C)cc(C)c4)cc3nc2s1
70 | -15% | O=Cc1c[nH]c2ccc(C(=O)c3ccccc3)cc12
71 | -9% | COC(=O)c1ccc(COC(=O)c2cccn2C)o1
72 | 2% | COCCCNC(=O)C1CCC(CNS(=O)(=O)c2ccc3c(c2)N(C(C)=O)CCO3)CC1 (centres undefined)
73 | 6% | CCOC(=O)NCCOC(=O)Nc1ccc(Cl)cc1
74 | 6%&-8% | CCOC(=O)c1cc2c(=O)n3ccccc3nc2n(CC(C)C)c1=NC(=O)c1c(-c2c(F)cccc2Cl)noc1C
75 | -18% | O=C(O)CCC1(C(=O)O)CCC(=O)c2ccccc21 (centres undefined)
76 | 1% | COc1cccc(NC(=O)c2ccccc2-c2nc(-c3ccc(F)cc3)no2)c1
77 | -1% | COc1ccc(C(=O)/C=C/Nc2cccc(O)c2)cc1
78 | -12% | O=C(O)COc1ccccc1-c1nc(-c2ccccc2)c(-c2ccccc2)[nH]1
79 | -26% | O=C(NC1(C(F)(F)F)C(=O)Nc2c1c(=O)[nH]c(=O)n2-c1ccccc1)c1cccnc1 (centres undefined)
80 | -12% | O=C(OCc1cc2ccccc2[nH]c1=O)c1ccc([N+](=O)[O-])cc1
81 | -8% | CCOc1ccc(NC(=O)CSc2nc(-c3ccccc3)c3cc(OCC)ccc3n2)cc1
82 | 23% | COc1ccc(OCC(=O)NNC(=O)c2c(-c3ccccc3Cl)noc2C)cc1
83 | -23% | C=CCOC(=O)C1=C[C@@H](c2ccc3c(c2)OCO3)C[C@@H](OCCCCO)O1
84 | 13% | COc1cc(C2C(=O)N(C3CCCCC3)CC(=O)N2Cc2ccc(C)cc2)ccc1OC(C)C (centres undefined)
85 | -11% | CC1=C(C(=O)OCC2CCCO2)C(c2ccc(F)cc2)NC(=O)N1 (centres undefined)
86 | 4% | CC1Oc2ccccc2C(=O)N(CC(=O)c2ccc3c(c2)OCCO3)C1=O (centres undefined)
87 | 13% | COc1ccc(-n2nnnc2SCC(=O)N(C)C2CCS(=O)(=O)C2)cc1 (centres undefined)
88 | -17% | Brc1c(CSc2nc3ccccc3s2)nc2ncccn12
89 | -21% | COC(=O)Cc1c(O)ccn(CCc2ccccc2)c1=O
90 | -7% | O=C(CCNS(=O)(=O)c1ccccc1)NCCCSc1ccccc1
91 | -18% | CCCC(=O)Nc1cccc(C(=O)Nc2nccs2)c1
92 | 71µM* | COc1ccc(Nc2nc(-c3cccnc3)nc3ccccc23)cn1
93 | -17% | Cc1c(CCC(=O)N2CCC[C@H]2C(=O)O)c(=O)oc2cc3oc4c(c3cc12)CCCC4
94 | -4% | CCS(=O)(=O)NCC(c1ccco1)N1CCN(c2ccccc2F)CC1 (centres undefined)
95 | 9% | O=C(c1ccco1)N1CCN(C(c2ccccn2)c2nnnn2C2CCCC2)CC1 (centres undefined)
96 | -1% | Cn1cccc1C(=O)OCc1cc(-c2ccco2)on1
97 | -9% | c1ccc(CN2CCC3CC2c2cc(N4CCOCC4)ccc23)cc1 (centres undefined)
98 | -10% | CCc1ccc(N2CC(O)(c3cccs3)[N+]3=C2SCCC3)cc1 (centres undefined)
99 | 1% | Cc1cc(C)c(-n2c(SCCS(=O)(=O)c3ccc(F)cc3)n[nH]c2=O)c(C)c1
100 | -11% | COC(=O)C1=C(C)N(Cc2ccccc2)C(=NCCN2CCOCC2)N[C@H]1CCc1ccccc1

Further compounds
# | VDR inhibitor | SMILES
101 | -3% | COC(=O)c1ccc(CNC(=O)c2nc(Cn3nc(C)c(Br)c3C)no2)cc1
102 | 5% | COc1ccc(-c2noc(-c3ccccc3C(=O)Nc3cccnc3)n2)cc1
103 | -14% | O=C(c1cnsn1)N1CCC(CO)(Cc2ccc(Cl)cc2)CC1
104 | -17% | Cn1c(=O)oc2cc(S(=O)(=O)NCCC(=O)NC3CCCc4ccccc43)ccc21 (centres undefined)
105 | -11% | CC(C)CN(C(=O)CN(C)C(=O)Cc1ccccc1Cl)c1c(N)n(CC(C)C)c(=O)[nH]c1=O
106 | -4% | CCOC(=O)C1=C(c2ccccc2)N=c2s/c(=C\c3cccc(O)c3)c(=O)n2C1c1cccs1 (centres undefined)
107 | -15% | COc1ccc(-c2csc(NC(=O)COC(=O)C3=COCCO3)n2)cc1
108 | 5% | Cc1ccc(OCCC(=O)OCC(=O)Nc2ccc(Cl)cn2)cc1
109 | 2% | CCc1ccccc1NC(=O)N[C@H](C(=O)O)C(C)C
110 | u | CCn1c(Cc2ccccc2)nnc1SCC(=O)Nc1nc(C)c(C)s1
111 | -10% | CCc1ccc(NC(=S)Nn2cnnc2)cc1
112 | -3% | O=C1C2C3CCC(C3)C2C(=O)N1CNc1ccccc1 (centres undefined)
113 | -8% | CN1c2ccsc2/C(=N/Nc2ccc(F)cc2)CS1(=O)=O
114 | -2% | OCCC1CN(Cc2ccc(F)cc2)CCN1CCc1ccccc1 (centres undefined)
115 | u | O=C1/C(=C/c2ccccc2)CN(C(=O)CCN2CCOCC2)C/C1=C\c1ccccc1
116 | 1% | Cc1ccc(C)c(NC(=O)CSc2nnc(CNC(=O)c3ccco3)n2C)c1
117 | -13% | NS(=O)(=O)c1ccc(NC(=O)CN2C(=O)CCC2=O)cc1
118 | -3% | N#CCC(=O)N1CCn2c1nc1ccccc12
119 | -6% | CCCn1c(SC(C)C(=O)NCC2CCCO2)nc2sc(CC)cc2c1=O (centres undefined)
120 | 4% | NC(=S)NN=CCn1cc([N+](=O)[O-])c(=O)[nH]c1=O
121 | 0% | C#CCOCCOCCOCCNc1nc(N2CCN(C(=O)Cn3cc(CCO)nn3)CC2)nc(N2CCN(C(=O)[C@H](C(C)C)n3cc(CCO)nn3)CC2)n1
122 | -14% | O=C(CCC1CCCCC1)Nc1nncs1
123 | -2% | O=C(c1cccc(Cl)c1)N(Cc1cccs1)C1CCS(=O)(=O)C1 (centres undefined)
124 | u | O=C(CN1C(=O)C2CC=CCC2C1=O)NC1CCCc2ccccc21 (centres undefined)
